VDR inhibitor – Inhibitors of the vitamin D receptor (VDR): qHTS. VDR-SRC2-3 peptide fluorescence polarization, 2 h. Potency, µM, for inactives: max response, negative = inhibition, usual class: inhibitors. hit rate 0.93% among 400,000. AID 504847, 2011; active = well fitted inhibition curve with a large enough effect; inconclusive = small, poorly fitted or top-dose-only effect, or another doubt; inactive = no such curve, though single readings can be large or run the other way; also: series mostly up to about 120 µM
Target sequence (P11473 whole entry, looked up): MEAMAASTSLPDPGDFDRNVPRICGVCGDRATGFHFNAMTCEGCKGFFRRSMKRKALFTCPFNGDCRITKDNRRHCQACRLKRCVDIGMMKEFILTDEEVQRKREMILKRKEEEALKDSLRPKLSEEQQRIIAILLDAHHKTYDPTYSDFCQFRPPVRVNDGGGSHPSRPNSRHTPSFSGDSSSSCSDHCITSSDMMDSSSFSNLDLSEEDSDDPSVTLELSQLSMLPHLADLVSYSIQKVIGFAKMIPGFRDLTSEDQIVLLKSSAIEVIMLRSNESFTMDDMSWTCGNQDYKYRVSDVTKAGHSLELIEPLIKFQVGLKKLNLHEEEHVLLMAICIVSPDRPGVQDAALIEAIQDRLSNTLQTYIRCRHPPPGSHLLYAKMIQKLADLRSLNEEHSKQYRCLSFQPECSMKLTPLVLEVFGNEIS
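Measured by FP: displacement of SRC2-3 coactivator peptide from VDR by library compounds, following a two-hour ambient incubation.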
Starred values were filed as active, the others as inactive; ? = inconclusive; & = joins results of further samples. % is scaled to controls: 0 for no effect and ±100 for the full control effect; potency is read from the fitted curve at half-maximal effect. These rows are one share of the data (hit frequency here may not be typical).

no. | mol | VDR inhibitor
1 | CC(C)CN(C(=O)COC(=O)c1cccc2ccccc12)c1c(N)n(Cc2ccccc2)c(=O)[nH]c1=O | -6%
2 | Clc1ccc(-c2nnn3c2nc(NC2CCCCC2)c2ccccc23)cc1 | -10%
3 | CCN(CC(=O)Nc1c(F)cccc1F)C(=O)CCNS(=O)(=O)c1ccc(C)c(C)c1 | -23%
4 | CC(C)n1c(/N=C/c2c[nH]c3ccccc23)nc2ccccc21 | 9%
5 | COc1ccc(NC2=NCC(=O)N2c2ccccc2)c(OC)c1 | 0%
6 | CCCCOP(=O)(c1ccc(N(C)C)cc1)C(O)c1c(Cl)cccc1Cl (stereo not drawn) | -10%
7 | COC(=O)C1=C[C@@H](C(=O)OC)C2C3=C(C(=O)[C@]2(C)NC(=O)c2ccccc2)[C@H](C)n2c(=O)n(C)c(=O)n2[C@@H]3C1 (stereo partly drawn) | -20%
8 | O=C(Cn1c2[n+](c3ccc(C(F)(F)F)cc31)CCCCC2)Nc1ccccc1 | 3%
9 | O=C(c1ccco1)N1N=C(c2cccs2)CC1c1cc([N+](=O)[O-])ccc1O (stereo not drawn) | 2%
10 | Cc1ccc(NC(=O)CSc2nncs2)cc1Cl | 4%
11 | O=C(COc1ccc2ccc(=O)oc2c1)N1CCc2ccccc21 | 5%
12 | Cc1ccc(Sc2ncccc2C(=O)N(C)Cc2cccs2)c(C)c1 | -12%
13 | COc1ccccc1CNC(=O)c1cn(C)c2ccc(S(=O)(=O)N3CCC(C)CC3)cc2c1=O | -12%
14 | CCOc1ccc(/C=C/C(=O)c2ccccc2)cc1 | ?
15 | O=C(COc1cccc2cccnc12)Nc1ccccc1 | -16%

Looked up above:
no. 7 in VDR inhibitor is entered as -20%
no. 11 in VDR inhibitor is entered as 5%

New compounds follow
no. | mol | VDR inhibitor
16 | Nc1c(S(=O)(=O)c2ccccc2)c2nc3ccccc3nc2n1C1CC1 | -15%
17 | COc1cc(Cl)c(C)cc1NC(=O)CSc1nnc(-c2ccco2)n1CC(C)C | -3%
18 | CC(=O)N/C(=C\c1ccccc1)C(=O)OCC(=O)c1ccc(F)cc1 | 6%
19 | CCCCN(C(=O)CCN1C(=O)C2CC=CCC2C1=O)c1c(N)n(CCCC)c(=O)[nH]c1=O (stereo not drawn) | -11%
20 | Cc1ccc(C)c(N2CCN(C(=O)Cn3nc(C)c4sc5ccccc5c4c3=O)CC2)c1 | 16%
21 | Cc1ccc(-c2nnc(SCC(=O)OC(C)C)n2N)cc1 | -12%
22 | O=C(COc1ccccc1)NNC(=O)COc1ccc([N+](=O)[O-])cc1 | -11%
23 | CN(Cc1ccccc1)CC1CCCN(CCc2ccccc2F)C1 (stereo not drawn) | 5%
24 | Cc1ccc(C(=O)Nc2ccc(S(=O)(=O)N3CCC(c4nc5ccccc5s4)CC3)cc2)cc1 | -1%
25 | CCOc1ccc(-n2ccn(CC(=O)NCCc3ccccc3)c(=O)c2=O)cc1 | -12%
26 | Cc1ccc(S(=O)(=O)NCCC(=O)Nc2ccc(Cl)c(Cl)c2)cc1 | -7%
27 | COc1ccc(-c2cc3c(=O)n(CC(=O)NCc4ccc(Cl)cc4)ncn3n2)cc1 | 17%
28 | CCN1CCN(S(=O)(=O)c2ccc(Cl)c(C(=O)N(CC)Cc3ccccc3)c2)CC1 | -10%
29 | CN(C1=C(NC(=O)c2ccc(Cl)cc2)C(=O)c2ccccc2C1=O)c1ccccc1 | -14%
30 | CCN(c1cccc(C)c1)S(=O)(=O)c1cccc2nsnc12 | 4%

Next part; it opens with the 2 that closed the last part.
no. | mol | VDR inhibitor
29 | CN(C1=C(NC(=O)c2ccc(Cl)cc2)C(=O)c2ccccc2C1=O)c1ccccc1 | -14%
30 | CCN(c1cccc(C)c1)S(=O)(=O)c1cccc2nsnc12 | 4%
31 | Cc1csc(CNc2ncnc3ccc(-c4ccc5c(c4)OCO5)cc23)c1 | 11%
32 | Cc1ccccc1Nc1nc(N)nc(CN2CCN(Cc3ccc4c(c3)OCO4)CC2)n1 | -2%
33 | O=c1nc(Nc2ccccc2)sc2ccc([N+](=O)[O-])cc12 | -10%
34 | O=C(COC(=O)c1ccc2c(c1)S(=O)(=O)N=C1CCCCCN12)NCc1cccs1 | 25%
35 | Cc1ccc(C(=O)N2CCC(C(=O)NC3CCCCCC3)CC2)cc1 | 0%
36 | O=C(CNC(=O)C1CCCCC1)Nc1cc(Cl)ccc1Cl | 15%
37 | Cn1c(=O)n(CCc2ccccc2)c(=O)c2c1nc1n2CCCN1Cc1ccccc1 | -1%
38 | O=C(NNc1ccccc1)/C(=C\c1cccnc1)NC(=O)c1ccccc1 | -22%
39 | COc1ccc(C2CC(c3ccccc3)=NN2C(=O)COC(=O)c2cccnc2)cc1 (stereo not drawn) | -4%
40 | Cc1ccc2occ(CC(=O)Nc3ccc(S(=O)(=O)N4CCCC(C)C4)cc3)c2c1 (stereo not drawn) | 5%
41 | CCOc1ccc2[nH]c(=O)c(CN(Cc3ccc(F)cc3)C(=O)N3CCCC3)cc2c1 | 9%
42 | CCS(=O)(=O)N1CCC(C(=O)N2CCc3ccccc3C2)CC1 | 7%
43 | CCC(C)NC(=O)c1ccc2nc(-c3ccco3)c(-c3ccco3)nc2c1 (stereo not drawn) | 50µM*
44 | Cc1nnc(-c2cnn(C)c2N)n1CCCN1CCOCC1 | 4%
45 | CC(=O)N1CCC(N(CCCOC(C)C)S(=O)(=O)c2ccc([N+](=O)[O-])cc2)CC1 | -16%
46 | C#CCOCCOCCOCCNc1nc(N2CCN(C(=O)CCCCCCCCCCNC(=O)[C@H](CCCCN)n3cc(CCO)nn3)CC2)nc(N2CCN(C(=O)CCCCCCCCCCNC(=O)[C@H](CCCCN)n3cc(C[C@@H](C)CC)nn3)CC2)n1 | 27%
47 | Cc1c(C)c(C)c(S(=O)(=O)N2CCSCC2)c(C)c1C | -14%
48 | CCOC(=O)c1cc(-c2ccccc2C)n(Cc2cc(C)no2)n1 | -10%
49 | O=C(N/N=C/c1ccc(COc2ccc(Br)cc2)o1)c1ccco1 | -8%
50 | CC(C)c1ccc(NC(=O)CCNS(=O)(=O)c2cc(Br)cnc2N)cc1 | 11%
51 | Cc1ccc(C(=O)Nc2ccc3c(c2)C(=O)N(CC2CCCO2)C3=O)cc1 (stereo not drawn) | -9%
52 | COc1ccc(Cl)cc1NC(=O)COc1cccc(-n2cnnn2)c1 | 22%
53 | COc1ccc([N+](=O)[O-])c(OC)c1C(=O)NC(=O)Nc1c(C)cccc1C | -19%
54 | CCCCCOC(=O)Cc1c(O)c2ccccc2n(C)c1=O | -15%
55 | CCN(/N=C/C=C/c1ccccc1)c1cc(=O)n(C)c(=O)[nH]1 | 3%
56 | Cc1ccc(-c2nn(-c3cc(Cl)ccc3[N+](=O)[O-])c(=O)c3ccccc23)cc1C | -12%
57 | COCCNC(=O)CSc1nc2ccccc2c(=O)n1-c1cccc(OC)c1 | 1%
58 | CC(NC(=O)c1ccccc1)c1ccc(F)cc1 (stereo not drawn) | -17%
59 | NC(=O)c1ncc(C(F)(F)F)cc1Oc1ccc(F)cc1 | -7%
60 | Cn1c(=O)c2c(nc(CN3CCN(c4ccccc4F)CC3)n2Cc2ccccc2F)n(C)c1=O | -12%
61 | COc1ccccc1NC(=O)Cc1csc(NC(=S)Nc2ccccc2)n1 | -21%
62 | CN(C)CCCn1c2c(c(SCC(=O)Nc3ccc4c(c3)OCCO4)nc1=O)CCC2 | -7%
63 | CCn1c(=O)c2ccccc2n(CC(=O)N2CCCc3ccccc32)c1=O | 7%
64 | NC(=O)C1CCN(CC(=O)Nc2ccccc2N2CCOCC2)CC1 | -14%
65 | Cc1cc(Br)ccc1NC(=O)C1CSC2(C)CCC(=O)N12 (stereo not drawn) | -17%
66 | CC(C)C[C@@H](C(=O)NCC1CCCO1)N1C(=O)N2CCc3c([nH]c4ccccc34)[C@@]2(C)C1=O (stereo partly drawn) | -5%
67 | O=C(Cn1c(-c2cncs2)nc2ccccc21)NC1CCCC1 | 3%
68 | CC#CC(=O)N1CCC(n2nccc2NC(=O)c2ccc3c(c2)OCO3)CC1 | -10%
69 | COc1ccc(C(C(=O)NC2CCCC2)N(CCO)C(=O)Cn2nnc(-c3ccc(C)o3)n2)cc1 (stereo not drawn) | 0%
70 | CC1(C)NC(=O)N(CC(=O)Nc2ccc(-n3cnnn3)cc2)C1=O | 6%
71 | COc1ccc(/C=N\NC(=O)c2ccccc2OC)cc1COc1ccccc1C | 13%
72 | Cc1ccc(Cl)cc1NC(=O)NCc1cccnc1 | 4%
73 | COc1nc(-c2ccccc2)nnc1-c1ccccc1 | -4%
74 | Cc1c(Cl)cccc1NC(=O)CCCN1C(=O)CCC1=O | -3%
75 | CC(=O)Nc1ccc(S(=O)(=O)N2CCN(C(=O)c3ncoc3-c3cccc(C)c3)CC2)cc1 | -4%

A draw from above in order of heavy-atom count, descending.
no. | mol | VDR inhibitor
75 | CC(=O)Nc1ccc(S(=O)(=O)N2CCN(C(=O)c3ncoc3-c3cccc(C)c3)CC2)cc1 | -4%
62 | CN(C)CCCn1c2c(c(SCC(=O)Nc3ccc4c(c3)OCCO4)nc1=O)CCC2 | -7%
71 | COc1ccc(/C=N\NC(=O)c2ccccc2OC)cc1COc1ccccc1C | 13%
61 | COc1ccccc1NC(=O)Cc1csc(NC(=S)Nc2ccccc2)n1 | -21%
64 | NC(=O)C1CCN(CC(=O)Nc2ccccc2N2CCOCC2)CC1 | -14%
67 | O=C(Cn1c(-c2cncs2)nc2ccccc21)NC1CCCC1 | 3%

(listing goes on)
no. | mol | VDR inhibitor
76 | CC(=O)N1CCN(CCS(=O)(=O)c2ccc(Br)cc2)CC1 | -10%
77 | CCOC(=O)C1CCN(S(=O)(=O)c2c[nH]c(=O)[nH]c2=O)CC1 | -3%
78 | Cc1cc(C)c(NC(=O)CN(CC(=O)O)CC(=O)O)c(C)c1Br | 9%
79 | Cc1cc(C)c(-c2cc(C(=O)Nc3c(C)n(C)n(-c4ccccc4)c3=O)[nH]n2)c(O)c1 | 3%
80 | CC(C)[C@H](NC(=O)c1ccco1)C(=O)N(C)Cc1c(F)cccc1Cl | 2%
81 | C#CC(=O)N(c1ccc(OC)c(OC)c1)C(C(=O)NC1CCCC1)c1cccs1 (stereo not drawn) | -13%
82 | Cc1ccc2c(Cl)c(C(=O)NCC(c3ccco3)N3CCCC3)sc2c1 (stereo not drawn) | 3%
83 | COc1ccc(-n2ccn(Cc3ccccc3C)c(=O)c2=O)cc1 | -3%
84 | CCCCCCc1ccc(N2C[C@H](CCCCC)[C@@H](CC(=O)NCc3ccccc3)C2=O)cc1 | 4%
85 | CCC(C)NC(=O)CNC(=S)N(CCCN1CCOCC1)Cc1cccs1 (stereo not drawn) | -14%
86 | O=C(O)c1cccc(S(=O)(=O)Nc2cccc3ccccc23)c1 | -14%
87 | CCn1ncc(/C=C/C(=O)NCc2cnn(C)c2C)c1C | 1%
88 | COc1cc(OC)cc(-c2c(-c3ccc(F)cc3)c3cc(-c4cccc5[nH]ccc45)ccc3n2C)c1 | -13%
89 | Cc1ccc(CSc2cn(CCNC(=O)c3cccs3)c3ccccc23)cc1 | 5%
90 | COc1cccc(C2C(C(C)=O)=C(O)C(=O)N2CCc2c[nH]c3ccccc23)c1 (stereo not drawn) | -14%
91 | CNC(=O)c1ccc(OC2CSC2)cc1 | 14%
92 | CCOC(=O)c1c(-c2ccco2)csc1NC(=O)CSc1nnc(N)s1 | -1%
93 | C[C@H](OC(=O)n1ccnc1)[C@@H]1O[C@@]2(C)CCC[C@@H]1O2 | -2%
94 | CC(=O)c1ccc(N2CCN(C(=O)Cn3cnc(S(=O)(=O)N4CCCCC4)c3)CC2)cc1 | -19%
95 | O=C(CNCc1cccs1)Nc1cc(S(=O)(=O)N2CCCC2)ccc1Cl | -4%
96 | COc1ccc(NC(=O)CCN2CCCC(C)C2)cc1 (stereo not drawn) | 8%
97 | CC(=O)Nc1sc(C)c(C)c1C(=O)OCC(=O)N(CC(C)C)c1c(N)n(Cc2ccccc2)c(=O)[nH]c1=O | -7%
98 | CCOc1ccc(CN2CCN(Cc3cc4ccccc4o3)CC2CCO)cc1 (stereo not drawn) | 7%
99 | O=C(Nc1c(-c2ccccc2)nc2ccccn12)c1ccccc1 | 7%
100 | NS(=O)(=O)c1cccc(NC(=O)CSc2n[nH]c(-c3ccccc3Br)n2)c1 | -2%
101 | COc1ccc2[nH]cc(C(=O)CN3CCCC(C)C3)c2c1 (stereo not drawn) | 13%
102 | CC(C)[C@H](NS(=O)(=O)c1ccccc1)C(=O)OCC(=O)NC(=O)c1cccn1C | 11%
103 | Cc1coc2cc3oc(=O)ccc3cc12 | -20%
104 | CCC1CCCCN1C(=S)NC(=O)c1ccc([N+](=O)[O-])cc1 (stereo not drawn) | -1%
105 | CCN(CC(=O)NCc1cccs1)C(=O)c1ccccc1F | -16%
106 | O=C(OC(C(=O)c1c[nH]c2ccccc12)c1ccccc1)c1cnccn1 (stereo not drawn) | 24%
107 | O=C(CC(=O)c1ccccc1)Nc1ccccc1 | 2%
108 | Cn1cccc1C(=O)NC(=O)COC(=O)C12CC3CC(CC(O)(C3)C1)C2 | -6%
109 | O=C(NC(=S)NCc1ccccc1)c1cccnc1 | -10%
110 | O=C(O)C1C2CCC(O2)C1C(=O)NCc1ccncc1 (stereo not drawn) | 18%
111 | CC(=O)c1ccc(NC(=O)CSc2nnc(Cn3c(=O)sc4ccccc43)n2C)cc1 | -13%
112 | Cc1cccc(OCC(=O)Nc2sc3c(c2C#N)CCC3)c1 | 5%
113 | Cc1nnc(NC(=O)C2CCCN(c3ncccn3)C2)s1 (stereo not drawn) | -5%
114 | Cc1ccc(-n2c(SCC(=O)Nc3cccc(F)c3)nc3c(oc4ccccc43)c2=O)cc1C | 3%
115 | CC(C(=O)O)c1cccc(Oc2ccccc2)c1 (stereo not drawn) | -8%&7%
116 | CCN1CCN(c2sc(S(C)(=O)=O)nc2S(=O)(=O)c2ccc(C)cc2)CC1 | 10%
117 | c1coc(CNC2C3CC4CC(C3)CC2C4)c1 (stereo not drawn) | 9%
118 | CCCn1cnc2cc(NCc3ccccn3)ccc21 | -9%
119 | CCS(=O)(=O)Nc1cccc(C2=NN(S(=O)(=O)c3ccc(C)cc3)C(c3cccs3)C2)c1 (stereo not drawn) | -8%
120 | CC(N=C1NS(=O)(=O)c2ccccc21)C(=O)NCCCc1ccccc1 (stereo not drawn) | 2%
